rRNA inh HTS = selective bacterial rRNA inhibition in E. coli; E. coli WT GFP vs humanized-ribosome RFP mutants, fluorescence, 24 h; hits give low values; DMSO median 0, no signal -100; GFP signal change (wild-type ribosome), % (no concentration beside the values); 1.6% of 350,000 active; AID 720706;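 active means significant combined selectivity score with lowered wild-type GFP, culture density cut under 30%, mutant RFP and density less affected; inactive means any of these conditions unmet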; further: one replicate is shown; some compounds called inactive have numbers as strong as hits
MLL AF4-AF9 inh = blocks AF4 peptide binding to human AF9. P42568. AlphaScreen, biotin-AF4 peptide binding to FLAG-AF9. 0.47% of 350,000 active. inhibition, % at 10 µM;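 active means every replicate reaching a set inhibition limit, whatever the replicate mean, cut at about 25% in these data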;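 further: 0% = plate neutral control median and 100% = total signal loss; the record names both 10 and 1 µM as test concentration; the first replicate is given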
Target sequence (P42568 whole entry, looked up): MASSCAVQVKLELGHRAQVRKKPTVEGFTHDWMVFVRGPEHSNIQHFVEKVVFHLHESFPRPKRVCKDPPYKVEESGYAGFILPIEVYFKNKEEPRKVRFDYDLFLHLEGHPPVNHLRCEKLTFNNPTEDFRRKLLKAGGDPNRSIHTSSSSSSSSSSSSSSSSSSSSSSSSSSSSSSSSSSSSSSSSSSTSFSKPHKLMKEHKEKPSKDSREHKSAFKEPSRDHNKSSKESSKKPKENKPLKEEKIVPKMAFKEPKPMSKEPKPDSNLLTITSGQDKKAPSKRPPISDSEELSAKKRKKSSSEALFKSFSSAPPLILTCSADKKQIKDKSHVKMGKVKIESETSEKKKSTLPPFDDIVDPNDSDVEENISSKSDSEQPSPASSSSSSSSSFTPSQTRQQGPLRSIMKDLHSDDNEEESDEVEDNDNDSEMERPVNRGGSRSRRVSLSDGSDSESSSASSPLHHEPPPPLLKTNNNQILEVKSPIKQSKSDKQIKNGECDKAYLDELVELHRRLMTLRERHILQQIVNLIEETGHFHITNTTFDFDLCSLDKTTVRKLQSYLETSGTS
rRNA inh HTS OD600 = recorded beside rRNA inh HTS, whose call it bears; OD600 change, %; measured here: OD600 growth;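 optical density of the mix in the first replicate; 0 = DMSO median and -100 = no signal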
rRNA inh HTS RFP = recorded beside rRNA inh HTS, whose call it bears; RFP signal change, %; measured here: RFP humanized mutant strains;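 first replicate; 0 = DMSO median and -100 = no signal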
Numbers without * were called inactive.

Screening CN(C)C(=O)c1cccc(-c2ccc3c(c2)[C@@H]2[C@@H](CCN2C(=O)c2ccccc2)[C@H](CO)N3C)c1 returned rRNA inh HTS -2, MLL AF4-AF9 inh 6.4, rRNA inh HTS OD600 5 and rRNA inh HTS RFP -1.4.
Screening C[C@H]1CN([C@@H](C)CO)C(=O)Cc2cc(NC(=O)Cc3ccccc3)ccc2O[C@H]1CN(C)Cc1ccc(Oc2ccccc2)cc1 returned rRNA inh HTS -2, MLL AF4-AF9 inh -1.2, rRNA inh HTS OD600 -7 and rRNA inh HTS RFP 0.2.
Screening Cc1ccc(S(=O)(=O)Nc2ccc3c(c2)C(=O)N([C@H](C)CO)C[C@@H](C)[C@@H](CN(C)S(=O)(=O)c2ccccc2)OCCCC[C@@H](C)O3)cc1 returned rRNA inh HTS 1, MLL AF4-AF9 inh -8.8, rRNA inh HTS OD600 -6 and rRNA inh HTS RFP 0.0.
COc1ccc(-c2ccc3c(c2)[C@H]2[C@H](CCN2Cc2cncnc2)[C@H](CO)N3)cc1 was read as rRNA inh HTS 15, MLL AF4-AF9 inh 0.9, rRNA inh HTS OD600 5 and rRNA inh HTS RFP 0.0.
C[C@H](CO)N1C[C@H](C)[C@@H](CN(C)Cc2ccncc2)OCCCC[C@H](C)Oc2ccc(NC(=O)c3ccccc3)cc2C1=O was read as rRNA inh HTS -4, MLL AF4-AF9 inh -0.2, rRNA inh HTS OD600 -9 and rRNA inh HTS RFP -3.1.
Screening CCCNC(=O)C[C@H]1CC[C@@H]2[C@H](COC[C@H](O)CN2C(=O)Nc2ccccc2OC)O1 returned rRNA inh HTS -2, MLL AF4-AF9 inh -10.0, rRNA inh HTS OD600 -6 and rRNA inh HTS RFP -3.2.
Cc1nc(C(F)(F)F)ccc1C(=O)N1CCCC1(C)C(=O)NCC(C)C (configuration not stated) was read as rRNA inh HTS 29, MLL AF4-AF9 inh -2.6, rRNA inh HTS OD600 9 and rRNA inh HTS RFP 4.7.
CNC[C@@H]1Oc2ccc(NC(=O)Nc3cccc4ccccc34)cc2C(=O)N([C@H](C)CO)C[C@@H]1C was read as rRNA inh HTS -1, MLL AF4-AF9 inh 2.9, rRNA inh HTS OD600 -2 and rRNA inh HTS RFP 0.1.
For Cc1ccc(S(=O)(=O)N(C)C[C@@H]2OCCCC[C@H](C)Oc3ccc(NS(=O)(=O)c4cn(C)cn4)cc3C(=O)N([C@@H](C)CO)C[C@H]2C)cc1 the results were rRNA inh HTS -3, MLL AF4-AF9 inh 4.2, rRNA inh HTS OD600 -7 and rRNA inh HTS RFP 0.1.
`O=C(C[C@@H]1C[C@@H]2c3cc(NC(=O)c4cccnc4)ccc3O[C@@H]2[C@@H](CO)O1)NCc1cccnc1` gave rRNA inh HTS 4, MLL AF4-AF9 inh 3.1, rRNA inh HTS OD600 9 and rRNA inh HTS RFP 0.0.
`C[C@H]1CN([C@@H](C)CO)C(=O)c2cc(NC(=O)C3CC3)ccc2O[C@@H]1CN(C)C(=O)Nc1ccccc1` gave rRNA inh HTS 2, MLL AF4-AF9 inh -2.1, rRNA inh HTS OD600 3 and rRNA inh HTS RFP -2.0.
For O=C(C[C@H]1CC[C@H]2[C@@H](COC[C@@H](O)CN2C(=O)Nc2ccc(Cl)cc2)O1)N1CCCCC1 the results were rRNA inh HTS -18*, MLL AF4-AF9 inh -11, rRNA inh HTS OD600 1.6* and rRNA inh HTS RFP 0.5*.
For CC(=O)NCCNc1nc2cc(-c3cccc(Cl)c3)sc2c(=O)n1C the results were rRNA inh HTS -9, MLL AF4-AF9 inh -1.7, rRNA inh HTS OD600 -10 and rRNA inh HTS RFP -3.5.
O=C(C[C@H]1C[C@@H]2c3cc(NC(=O)C4CCOCC4)ccc3O[C@@H]2[C@H](CO)O1)NCCc1ccccc1 was read as rRNA inh HTS 2, MLL AF4-AF9 inh -0.6, rRNA inh HTS OD600 7 and rRNA inh HTS RFP -1.8.
COCC#Cc1ccc2c(c1)O[C@@H](CN(C)Cc1ccc3c(c1)OCO3)[C@@H](C)CN([C@H](C)CO)S2(=O)=O was read as rRNA inh HTS 0, MLL AF4-AF9 inh 7.9, rRNA inh HTS OD600 -6 and rRNA inh HTS RFP -1.3.
COc1ccccc1S(=O)(=O)N[C@@H]1CC[C@@H](CCNC(=O)C2CCOCC2)O[C@H]1CO was read as rRNA inh HTS 2, MLL AF4-AF9 inh -4.3, rRNA inh HTS OD600 0 and rRNA inh HTS RFP 0.2.
For O=C(C[C@@H]1CC[C@@H](NC(=O)c2ccc3c(c2)OCO3)[C@@H](CO)O1)NCc1ccc(F)cc1 the results were rRNA inh HTS -7, MLL AF4-AF9 inh 1.1, rRNA inh HTS OD600 -2 and rRNA inh HTS RFP -2.0.
Screening COc1cccc(CN2CC3(CN(CC4CCOCC4)C3)c3c([nH]c4cc(OC)ccc34)[C@H]2CO)c1 returned rRNA inh HTS -1, MLL AF4-AF9 inh 3.8, rRNA inh HTS OD600 14 and rRNA inh HTS RFP 0.8.
Cc1noc(C)c1NC(=O)Nc1ccc2c(c1)C(=O)N([C@H](C)CO)C[C@H](C)[C@@H](CN(C)C(=O)NC(C)C)OCCCC[C@@H](C)O2 was read as rRNA inh HTS 1, MLL AF4-AF9 inh -0.5, rRNA inh HTS OD600 8 and rRNA inh HTS RFP -4.2.
For O=C(C[C@H]1CC[C@@H]2[C@H](COC[C@@H](O)CN2CC2CCCCC2)O1)NCC1CC1 the results were rRNA inh HTS 2, MLL AF4-AF9 inh -4.3, rRNA inh HTS OD600 15 and rRNA inh HTS RFP -3.1.
For CCC(=O)N(C)C[C@@H]1Oc2ncc(C#C[C@@H](C)O)cc2C(=O)N([C@@H](C)CO)C[C@H]1C the results were rRNA inh HTS 5, MLL AF4-AF9 inh -3.0, rRNA inh HTS OD600 12 and rRNA inh HTS RFP -3.5.
C[C@H](CO)N1C[C@H](C)[C@H](CN(C)C(=O)Nc2ccccc2)Oc2ccc(NC(=O)Nc3cccc4ccccc34)cc2CC1=O was read as rRNA inh HTS -1, MLL AF4-AF9 inh 2.5, rRNA inh HTS OD600 -6 and rRNA inh HTS RFP 2.4.
`Cc1ccc(Cc2c(-c3cccc(Br)c3)nc3ccc(C)cn23)cc1` gave rRNA inh HTS -27*, MLL AF4-AF9 inh 0.8, rRNA inh HTS OD600 -5.2* and rRNA inh HTS RFP 3.2*.
`CC(=O)N[C@@H]1CC[C@H](CC(=O)NCc2ccc(Cl)cc2)O[C@H]1CO` gave rRNA inh HTS 3, MLL AF4-AF9 inh -12, rRNA inh HTS OD600 9 and rRNA inh HTS RFP -0.1.
CC(C)COC(=O)N(C)C[C@@H]1OCc2cn(nn2)CCCC(=O)N([C@@H](C)CO)C[C@@H]1C was read as rRNA inh HTS 1, MLL AF4-AF9 inh -0.3, rRNA inh HTS OD600 -3 and rRNA inh HTS RFP -1.2.
CCc1nc2c(OCCOC)cccn2c1N(C)C(=O)Nc1ccccc1OC was read as rRNA inh HTS -1, MLL AF4-AF9 inh -1.3, rRNA inh HTS OD600 16 and rRNA inh HTS RFP -4.7.
O=C(C[C@@H]1C[C@@H]2c3cc(NC(=O)C4CCC4)ccc3O[C@@H]2[C@@H](CO)O1)NCCN1CCCCC1 was read as rRNA inh HTS 1, MLL AF4-AF9 inh 3.2, rRNA inh HTS OD600 4 and rRNA inh HTS RFP -1.0.
`CNC[C@H]1Oc2ccc(NS(=O)(=O)c3ccc(OC)cc3)cc2CC(=O)N([C@@H](C)CO)C[C@H]1C` gave rRNA inh HTS 8, MLL AF4-AF9 inh 4.2, rRNA inh HTS OD600 7 and rRNA inh HTS RFP -2.8.
`CC(=O)NC[C@@H]1[C@H](c2ccc(-c3cccnc3)cc2)[C@H](CO)N1C(=O)C1CC1` gave rRNA inh HTS 1, MLL AF4-AF9 inh -0.7, rRNA inh HTS OD600 1 and rRNA inh HTS RFP -0.5.
`O=C(Nc1ccccc1)c1ccccc1Br` gave rRNA inh HTS 6, MLL AF4-AF9 inh -1.8, rRNA inh HTS OD600 15 and rRNA inh HTS RFP 2.3.

A draw from above in order of number of heavy atoms, low to high.
`CC(=O)N[C@@H]1CC[C@H](CC(=O)NCc2ccc(Cl)cc2)O[C@H]1CO` gave rRNA inh HTS 3, MLL AF4-AF9 inh -12, rRNA inh HTS OD600 9 and rRNA inh HTS RFP -0.1.
CCc1nc2c(OCCOC)cccn2c1N(C)C(=O)Nc1ccccc1OC was read as rRNA inh HTS -1, MLL AF4-AF9 inh -1.3, rRNA inh HTS OD600 16 and rRNA inh HTS RFP -4.7.
COc1ccccc1S(=O)(=O)N[C@@H]1CC[C@@H](CCNC(=O)C2CCOCC2)O[C@H]1CO was read as rRNA inh HTS 2, MLL AF4-AF9 inh -4.3, rRNA inh HTS OD600 0 and rRNA inh HTS RFP 0.2.
O=C(C[C@@H]1C[C@@H]2c3cc(NC(=O)C4CCC4)ccc3O[C@@H]2[C@@H](CO)O1)NCCN1CCCCC1 was read as rRNA inh HTS 1, MLL AF4-AF9 inh 3.2, rRNA inh HTS OD600 4 and rRNA inh HTS RFP -1.0.
Screening COc1cccc(CN2CC3(CN(CC4CCOCC4)C3)c3c([nH]c4cc(OC)ccc34)[C@H]2CO)c1 returned rRNA inh HTS -1, MLL AF4-AF9 inh 3.8, rRNA inh HTS OD600 14 and rRNA inh HTS RFP 0.8.
C[C@H](CO)N1C[C@H](C)[C@@H](CN(C)Cc2ccncc2)OCCCC[C@H](C)Oc2ccc(NC(=O)c3ccccc3)cc2C1=O was read as rRNA inh HTS -4, MLL AF4-AF9 inh -0.2, rRNA inh HTS OD600 -9 and rRNA inh HTS RFP -3.1.

(next part)
For CCCC#Cc1ccc([C@@H]2[C@H]3CN(C(=O)c4ccc5c(c4)OCO5)CCCCN3[C@H]2CO)cc1 the results were rRNA inh HTS -55, MLL AF4-AF9 inh 5.9, rRNA inh HTS OD600 -66 and rRNA inh HTS RFP -7.4.
CC(C)C#Cc1cnc2c(c1)C(=O)N([C@@H](C)CO)C[C@@H](C)[C@@H](CN(C)C(=O)c1ccccc1)O2 was read as rRNA inh HTS 7, MLL AF4-AF9 inh -5.4, rRNA inh HTS OD600 15 and rRNA inh HTS RFP 1.9.
Screening CC1(C(=O)NS(=O)(=O)c2cccs2)CCN1C(=O)Cc1ccc(Cl)cc1Cl (configuration not stated) returned rRNA inh HTS 8, MLL AF4-AF9 inh -2.2, rRNA inh HTS OD600 15 and rRNA inh HTS RFP 0.5.
CC(C)C[C@@H]1O[C@H](C(C)C)Cc2[nH][nH]c(=O)c21 was read as rRNA inh HTS 10, MLL AF4-AF9 inh -2.8, rRNA inh HTS OD600 -7 and rRNA inh HTS RFP -2.0.
For CCCNC(=O)N1CC(=O)N2[C@H](CO)[C@H](c3ccc(-c4ccncc4)cc3)[C@@H]2C1 the results were rRNA inh HTS -1, MLL AF4-AF9 inh -4.0, rRNA inh HTS OD600 12 and rRNA inh HTS RFP 1.2.
Screening O=C(N[C@H]1CC[C@@H](CCNS(=O)(=O)c2ccc(F)cc2)O[C@@H]1CO)C1CC1 returned rRNA inh HTS 4, MLL AF4-AF9 inh 0.4, rRNA inh HTS OD600 1 and rRNA inh HTS RFP 0.3.
CN(C[C@H]1[C@H](c2ccccc2)[C@@H](CO)N1CC1CC1)C(=O)c1ccccc1 was read as rRNA inh HTS 1, MLL AF4-AF9 inh -0.8, rRNA inh HTS OD600 6 and rRNA inh HTS RFP 1.4.
`Nc1[nH]c(C(=O)c2ccccc2)c(-c2ccc(Cl)cc2)c1C(=O)NCc1ccccc1` gave rRNA inh HTS -1, MLL AF4-AF9 inh 0.1, rRNA inh HTS OD600 10 and rRNA inh HTS RFP 12.
Screening C/C=C/c1cnc2c(c1)C(=O)N([C@@H](C)CO)C[C@@H](C)[C@H](CN(C)C(=O)c1cccnc1)O2 returned rRNA inh HTS 8, MLL AF4-AF9 inh -1.8, rRNA inh HTS OD600 10 and rRNA inh HTS RFP -2.7.
COC(=O)c1ccc(N2C(c3ccsc3)=Cc3cc4c(cc3C2CC(=O)c2ccco2)OCO4)cc1 (configuration not stated) was read as rRNA inh HTS 4, MLL AF4-AF9 inh -1.5, rRNA inh HTS OD600 18 and rRNA inh HTS RFP -1.6.
`C[C@@H]1CN([C@H](C)CO)C(=O)c2cc(NS(=O)(=O)c3ccc(Cl)cc3)ccc2O[C@@H]1CN(C)Cc1ccccc1` gave rRNA inh HTS -4, MLL AF4-AF9 inh 2.8, rRNA inh HTS OD600 -12 and rRNA inh HTS RFP 2.6.
For C[C@H](CO)N1C[C@H](C)[C@H](CN(C)Cc2ccccc2)Oc2cc(C3=CCCC3)ccc2S1(=O)=O the results were rRNA inh HTS -9, MLL AF4-AF9 inh 5.0, rRNA inh HTS OD600 -32 and rRNA inh HTS RFP 17.
For C[C@@H]1CN([C@@H](C)CO)C(=O)c2cc(C#Cc3ccccc3F)cnc2O[C@@H]1CN(C)C(=O)Cc1ccccc1 the results were rRNA inh HTS 0, MLL AF4-AF9 inh 2.8, rRNA inh HTS OD600 -26 and rRNA inh HTS RFP 22.
For Cc1noc(C)c1NC(=O)Nc1ccc2c(c1)C(=O)N([C@H](C)CO)C[C@H](C)[C@H](CN(C)S(=O)(=O)c1cccs1)OCCCC[C@H](C)O2 the results were rRNA inh HTS -4, MLL AF4-AF9 inh 0.5, rRNA inh HTS OD600 -7 and rRNA inh HTS RFP -0.7.
For CCNC(=O)[C@@H]1[C@@H](CO)[C@@H]2Cn3c(ccc(-c4cncnc4)c3=O)[C@@H]2N1C(=O)NC1CCCC1 the results were rRNA inh HTS 4, MLL AF4-AF9 inh -0.1, rRNA inh HTS OD600 7 and rRNA inh HTS RFP -0.8.

These rows are one share of the data; rates above refer to the full screens.
